Bioassay records deposited in PubChem BioAssay by several laboratories.
HSV augment – enhancers of HSV replication in host cells, fold increase, host cell viability; HSV replication augmentation in cells; AID 1956, 2009; maximum fold increase; 0.005% of 220,000 active;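 active = peak rise of 1.5-fold or more in the series; tested in PC3 cells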;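 note: first round at 10 µM; read as green reporter fluorescence; hits show the peak of a series up to 25 µM; 1 = signal of infected wells without compound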
GALR2 ag – GALR2 receptor agonists, primary screen, cell-based | Galanin receptor type 2 (Homo sapiens), O43603 | GALR2-expressing cells, agonist activation read-out | activation, %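 (tested at 5 µM)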 | 0.48% of 140,000 active;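 active = above mean plus 3 SD of all compounds, about 5% in these data, not always enough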;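 note: 0% = vehicle buffer wells and 100% = reference agonist at full effect; tested in CHO reporter cells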
Target sequence (O43603 whole entry, looked up): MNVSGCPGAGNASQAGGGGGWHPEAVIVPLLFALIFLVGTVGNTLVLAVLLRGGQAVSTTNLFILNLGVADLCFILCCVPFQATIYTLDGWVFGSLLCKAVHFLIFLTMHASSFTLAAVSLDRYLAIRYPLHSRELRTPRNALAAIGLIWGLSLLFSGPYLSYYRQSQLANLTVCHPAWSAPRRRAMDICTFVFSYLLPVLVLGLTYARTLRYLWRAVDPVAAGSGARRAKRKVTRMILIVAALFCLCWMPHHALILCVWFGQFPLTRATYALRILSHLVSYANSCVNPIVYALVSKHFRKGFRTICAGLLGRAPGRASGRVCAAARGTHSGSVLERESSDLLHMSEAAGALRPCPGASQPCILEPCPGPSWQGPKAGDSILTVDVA
PKD1 kinase inh – inhibitors of human PKD1 kinase, biochemical, fluorescence polarization. PKD1 kinase fluorescence polarization assay. inhibition, %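 (about 10 µM by stock and volumes)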. 0.056% of 200,000 active. AID 797, 2007;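 active = inhibition of 50% or more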;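 note: controls were vehicle for no effect and a reference inhibitor for full effect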
INS promoter inh – inhibitors of insulin promoter-driven GFP, primary screen, imaging, TRM-6 cells (human fetal islet line), eGFP reporter, cell count; inhibition, % at 2 µM; reporter expression induced with tamoxifen; 0.9% of 130,000 active; AID 1273, 2008;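 active = inhibition above the mean plus 3 SD, with well images judged a real hit on visual review, cut at about 60% in these data, passing the limit was not always enough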
RGS16-Gao – modulators of RGS16 binding to Galphao, primary screen, biochemical, human proteins, multiplexed bead flow cytometry; bead-based flow cytometry RGS16-Galphao binding, fluorescence; actives lie on both sides; Regulator of G-protein signaling 16 (Homo sapiens) + Guanine nucleotide-binding protein …; binding response (% of control), % at 10 µM; 0.38% of 220,000 active; AID 1441, 2008;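 active = below 25% or above 175%, edge rows of some plates excepted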;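 note: Galphao activated by GDP with aluminum fluoride before binding; 100% = wells without compound and 0% = beads without RGS; some results beyond the cut were filed as inactive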
Target sequence (O15492 whole entry, looked up): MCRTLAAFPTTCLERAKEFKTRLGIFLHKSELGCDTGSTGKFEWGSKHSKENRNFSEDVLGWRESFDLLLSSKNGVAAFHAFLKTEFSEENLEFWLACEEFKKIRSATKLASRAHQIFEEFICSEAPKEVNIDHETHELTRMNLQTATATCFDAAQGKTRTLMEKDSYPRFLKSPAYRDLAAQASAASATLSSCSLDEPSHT
Target sequence (P09471 whole entry, looked up): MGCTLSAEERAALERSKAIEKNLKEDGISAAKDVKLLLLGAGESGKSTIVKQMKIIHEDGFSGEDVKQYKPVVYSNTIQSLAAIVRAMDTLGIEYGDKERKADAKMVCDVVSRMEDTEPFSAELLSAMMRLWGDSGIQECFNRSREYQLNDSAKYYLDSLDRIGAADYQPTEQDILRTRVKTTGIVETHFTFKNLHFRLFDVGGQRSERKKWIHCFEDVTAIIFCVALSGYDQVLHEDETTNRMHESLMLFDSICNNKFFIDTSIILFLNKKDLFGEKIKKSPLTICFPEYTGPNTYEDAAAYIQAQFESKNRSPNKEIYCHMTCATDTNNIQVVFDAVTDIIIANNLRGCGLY
INS promoter inh cell count – recorded beside INS promoter inh, whose call it bears; normalized cell count, %; measured here: cell count, toxicity; reference of the scale not given here;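 cells exposed to compound for 48 h; stained nuclei by imaging scaled within each plate; lower means fewer cells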
HSV augment primary fold – also measured in HSV augment; calls as there; fold increase; compound at 10 µM; measured here: primary screen fold increase 10 uM; tested in PC3 cells;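 GFP signal in the first replicate; 1 = infected wells without compound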
* marks the source's active call; other numbers are inactive results; i = inactive; . = not tested or not shown; & = joins results of further samples. An unsorted share of the library; overall some 1.3% were active at least once.

The line under a structure holds: INS promoter inh cell count, PKD1 kinase inh, RGS16-Gao, GALR2 ag, INS promoter inh, HSV augment primary fold, HSV augment
- Nc1csnc1C(=O)O
  ., -8, 98, -0.4, ., 0.78, i
- C=CCNc1nc(Nc2ccc(OC)cc2)nc(OCC)n1
  ., -3, 107, -2.0, ., 1, i
- CCCCNC(=O)C(c1ccc(-c2ccccc2)cc1)N(CCN1CCOCC1)C(=O)CCCCCN1C(=O)NC(c2ccc([N+](=O)[O-])cc2)C(C(=O)OCc2ccccc2)=C1C (stereo unspecified)
  130, -4, 99, -0.3, 45, 0.65, i
- Cc1cc(C(=O)OCC(=O)N(C)c2ccccc2)ccc1[N+](=O)[O-]
  ., -4, 96, ., ., 0.91, i
- CCN(CC)c1ncnc2c1sc1nc(C)cc(C)c12
  149, -4, 101, 0.3, -35, 0.95, i
- C=CCn1c(SCc2c(C)noc2C)nc2sc3c(c2c1=O)CCCCC3
  91, 13, 88, -0.6, -3, 0.69, i
- CCOC(=O)c1oc2ccccc2c1CSc1nnnn1-c1ccccc1
  93, -9, 103, -1.4, 4, 1, i
- COc1cccc(OCCOc2ccccc2OC(C)C)c1
  56, 1, 105, -1.0, -17, 0.87, i
- O=C1CN(c2ccccc2)C(=O)N1
  ., ., 109, ., ., 0.97, i
- COc1ccc(O)c(CNn2c(-c3ccc(Br)cc3)nc3ccccc3c2=O)c1
  73, 3, 109, ., 14, 0.92, i
- CCn1nnnc1SCC(=O)N1CCc2ccccc21
  72, 0, 101, -2.3, -69, 1.1, i
- CN(C)CCCN1c2ccccc2Sc2ccc(Cl)cc21
  51&75, -1&12, 95&106, -0.6&0.1, -73&-77, 0.67&0.92, i
- CCc1nc2ccccc2n1Cc1ccccc1OC
  168, 2, 100, -1.9, -36, 1.1, i
- Cc1[nH]nc2c1C(c1cccs1)C1=C(CCCC1=O)N2 (stereo unspecified)
  ., 4, 100, ., ., 0.87, i
- CC(=O)Oc1ccc2c(=O)c(N3C(=O)c4ccccc4C3=O)c(C)oc2c1
  93, 3, 104, -1.5, 7, 0.97, i
- COc1ccc(Br)cc1/C=C/C(=O)Nc1ccc(C)cc1
  ., -6, 102, -1.2, ., 0.83, i
- O=C(Nc1ccccc1N1CCCCC1)c1cnccn1
  ., -1, 101, ., ., 0.86, i
- CCCCNC(=S)N(C)/N=C/c1ccc(OCC(=O)Nc2ccc(OC)cc2)c(OC)c1
  109, -3, 100, -2.4, 27, 0.86, i
- CC(=O)c1c(C)[nH]c(C(=O)N2CCN(c3ccc(F)cc3)CC2)c1C
  83, -6, 102, -1.0, -43, 1.2, i
- Cc1onc(-c2ccccc2)c1NC(=O)N(CCC#N)Cc1cccs1
  ., ., 97, ., ., 1.1, i

Three structures from above, sorted by length of the SMILES, smallest number first:
The line under a structure holds: INS promoter inh cell count, PKD1 kinase inh, RGS16-Gao, GALR2 ag, INS promoter inh, HSV augment primary fold, HSV augment
- COc1cccc(OCCOc2ccccc2OC(C)C)c1
  56, 1, 105, -1.0, -17, 0.87, i
- CC(=O)c1c(C)[nH]c(C(=O)N2CCN(c3ccc(F)cc3)CC2)c1C
  83, -6, 102, -1.0, -43, 1.2, i
- CCCCNC(=O)C(c1ccc(-c2ccccc2)cc1)N(CCN1CCOCC1)C(=O)CCCCCN1C(=O)NC(c2ccc([N+](=O)[O-])cc2)C(C(=O)OCc2ccccc2)=C1C (stereo unspecified)
  130, -4, 99, -0.3, 45, 0.65, i

Remaining list, next part
The line under a structure holds: INS promoter inh cell count, PKD1 kinase inh, RGS16-Gao, GALR2 ag, INS promoter inh, HSV augment primary fold, HSV augment
- Cc1sc(NC(=O)Cn2cnnn2)nc1-c1ccc(Cl)cc1
  ., 3, 102, ., ., 1, i
- O=C(Nc1ccc2c3c(cccc13)CC2)c1ccco1
  ., 4, 102, -2.0, ., 1.2, i
- Cc1ccc2c(COC(=O)C34CC5CC(CC(C5)C3)C4)cc(=O)oc2c1
  93, -5, 112, -1.2, 13, 0.9, i
- CN(C)S(=O)(=O)c1ccc(N2CCOCC2)nc1
  101, 4, 102, -1.8, -350, 0.91, i
- Cc1ccccc1-n1nc(C(=O)c2cccs2)cc(-c2nc3ccccc3[nH]2)c1=N
  85, 1, 97, -2.6, 17, 0.92, i
- CN(C)S(=O)(=O)N1CCC(Cc2ccccc2)CC1
  152, -3, 92, -0.7, 23, 0.79, i
- Cc1c(C(=O)NCc2ccc3c(c2)OCO3)oc2ccc(S(=O)(=O)N3CCCCC3)cc12
  120, -9, 100, -0.5, 0, 1, i
- CN(C)/C=N/c1nc2ccc3c(c2s1)CCCC3
  90, 3, ., -1.8, 0, 0.9, i
- O=c1onc(-c2cccnc2)n1-c1ccccc1F
  ., ., 97, ., ., 1.1, i
- COc1cc(C(N)=O)cc(Cl)c1OC
  ., 3, 104, ., ., 0.95, i
- COC(=O)c1sccc1NC(=O)COc1ccc(Cl)cc1
  92, -18, 97, -0.1, -20, 0.92, i
- O=[N+]([O-])c1ccc(N2CCCCC2)c(-c2nn[nH]n2)c1
  177, -5, 110, ., 17, 0.91, i
- CCC(=O)OCCn1c(=O)c2ccccc2c2ccccc2c1=O
  ., 1, 87, ., ., 1.1, i
- C/C(=N\NC(=S)Nc1cc(S(=O)(=O)N2CCOCC2)ccc1Cl)c1ccccc1F
  93, -5, 111, 0.0, -29, 0.9, i
- COc1ccc(/C=N/Nc2ccc(C(=O)O)cc2)cc1Br
  122, -6, 101, ., -43, 0.88, i
- Cc1ccc(S(=O)(=O)Nc2cccc(N(C)S(C)(=O)=O)c2)cc1[N+](=O)[O-]
  ., -5, 97, ., ., 0.98, i
- S=c1nc(-c2ccccc2)[nH]c2ccccc12
  ., 5, 97, ., ., 1, i
- Cc1ccc(C(=O)Nc2nnc(C)s2)cc1
  129, -7, 97, ., -4, 0.99, i
- Cc1ccc(NC(=O)C(NC2CCCc3ccccc32)c2ccccc2)cc1Cl (stereo unspecified)
  120, -14, 107, -0.7, -7, 1, i
- N#CCCN1CCN(S(=O)(=O)c2ccc(S(=O)(=O)NCC3CCCO3)cc2)CC1 (stereo unspecified)
  ., -7, 94, -1.8, ., 1.3, i

Compound profiles, from the list above. Order of values: INS promoter inh cell count | PKD1 kinase inh | RGS16-Gao | GALR2 ag | INS promoter inh | HSV augment primary fold | HSV augment
Cc1ccc(C(=O)Nc2nnc(C)s2)cc1 reads 129 | -7 | 97 | . | -4 | 0.99 | i
Cc1ccccc1-n1nc(C(=O)c2cccs2)cc(-c2nc3ccccc3[nH]2)c1=N reads 85 | 1 | 97 | -2.6 | 17 | 0.92 | i
CN(C)S(=O)(=O)N1CCC(Cc2ccccc2)CC1 reads 152 | -3 | 92 | -0.7 | 23 | 0.79 | i
CN(C)/C=N/c1nc2ccc3c(c2s1)CCCC3 reads 90 | 3 | . | -1.8 | 0 | 0.9 | i

(listing goes on)
The line under a structure holds: INS promoter inh cell count, PKD1 kinase inh, RGS16-Gao, GALR2 ag, INS promoter inh, HSV augment primary fold, HSV augment
- CCOP(=O)(OCC)C(NC(=O)Nc1ccc(Cl)cc1)c1ccccc1 (stereo unspecified)
  ., 4, 102, -2.8, ., 0.87, i
- CC1CCCC(NC(=O)c2cccc(N3CCCC3=O)c2)C1C (stereo unspecified)
  51, -2, 112, ., -108, 1, i
- Cn1c(=O)c2[nH]c(N3CCN(c4ccccn4)CC3)nc2n(C)c1=O
  ., 4, 109, ., ., 1.1, i
- COc1cccc(OC)c1OCCCOc1cccc2cccnc12
  ., -2, 102, ., ., 0.99, i
- Cc1[nH]c2ccccc2c1C(=O)CSc1ncn[nH]1
  54, 1, 108, -1.6, 14, 0.95, i
- CCc1cc(C(=O)Nc2ccc(C)cc2Br)cs1
  144, -5, 141, -3.0, 31, 0.84, i
- CN(Cc1ccon1)C(=O)CCc1nnc(Cc2ccc(-c3ccccc3)cc2)o1
  86, 9, 107, ., -179, 1, i
- COCCNC(=O)c1ccccc1NC(=O)c1ccc(OC)c(OC)c1
  88, -4, 99, -0.9, 11, 1.1, i
- Cc1ccc2nc(SCC(=O)Nc3ccccc3N3CCOCC3)c(C#N)cc2c1
  129, 1, 99, -1.6, 8, ., .
- C#CCOc1c(Cl)cc(/C=N/O)cc1OC
  54, 1, 105, 0.0, 0, 0.99, i
- CCC1(C)Cc2nc(Cl)c(C#N)cc2CO1 (stereo unspecified)
  ., ., 98, ., ., 0.95, i
- NS(=O)(=O)c1ccc(NNC(=O)c2cccs2)cc1
  ., ., 96, ., ., 1.1, i
- CC(C)CCNC(=O)CN(C)S(=O)(=O)c1cccc2nsnc12
  79, 5, 150, -1.4, -20, 1.1, i
- CCOc1cc(S(=O)(=O)NCc2ccccn2)c(C)cc1C
  114, 3, 101, -0.2, -17, ., .
- COc1c(F)c(F)c(C(=O)Nc2c(C)cc(Br)cc2C)c(F)c1F
  ., -3, 102, ., ., 0.98, i
- O=C(NC(=S)Nc1cc(C(F)(F)F)ccc1N1CCOCC1)c1ccc(-c2cccc(Cl)c2)o1
  ., 2, 101, 0.0, ., 0.87, i
- COc1cccc(NC(=O)c2cccc(C)c2[N+](=O)[O-])c1
  ., 0, 91, ., ., 0.95, i
- COc1ccc(NC(=O)c2ccc(-c3ccccc3)cc2)cc1S(=O)(=O)N1CCOCC1
  ., -5, 99, ., ., 0.88, i
- O=C(CN1CCC(n2nnc3ccccc32)CC1)NCc1cccs1
  ., 3, 103, -1.8, ., 0.82, i
- O=C(COC(=O)CCSc1ccccc1)Nc1ccc(F)cc1Cl
  99, -5, 111, 0.3, -24, 0.99, i

(list continues)
The line under a structure holds: INS promoter inh cell count, PKD1 kinase inh, RGS16-Gao, GALR2 ag, INS promoter inh, HSV augment primary fold, HSV augment
- COc1cccc(NC(=O)C2CCC(CNS(=O)(=O)c3cccs3)CC2)c1 (stereo unspecified)
  76, 6, 105, ., 25, 1, i
- CC(C)OCC1Cn2c(nc3c2c(=O)n(C)c(=O)n3C)O1 (stereo unspecified)
  148, -9, 103, ., 32, 1, i
- Fc1cccc2sc(N3CCOCC3)nc12
  150, 8, 115, -1.7, -18, 0.97, i
- Cc1ccc(NC(=O)CN2CCCCCC2)cc1Br
  71, -6, 109, ., -64, 0.74, i
- CCN(c1ccc(OC)cc1)c1ncnc2nc[nH]c12
  ., -3, 100, -4.5, ., 0.86, i
- COc1ccc(NC(=O)Cc2c(C)n(C(=O)c3ccc(Cl)cc3)c3ccc(OC)cc23)cc1
  ., -1, 102, -0.6, ., 0.99, i
- CCOC(=O)C1=C(C)N=c2s/c(=C/c3ccccc3)c(=O)n2C1c1ccc(OC)c(OC)c1 (stereo unspecified)
  94, -12, 102, -2.1, -16, 1, i
- Cc1cc(C)c(-c2csc(NC(=O)COC(=O)c3ccc4c(c3)OCO4)n2)c(C)c1
  93, 7, 94, -1.4, 27, 1, i
- COc1ccc(S(=O)(=O)NCCOc2ccccc2)cc1OC
  123, 4, 85, -0.9, 4, 1, i
- C/C(=N\NC1=NCCN1)c1ccccc1
  ., ., 102, ., ., 1.1, i
- Cc1cc(C)c2nc(C)cc(Nc3ccc(C(=O)NCCO)cc3)c2c1
  ., ., 103, ., ., 0.77, i
- CC(=O)NC(CCS(C)(=O)=O)C(=O)N1CCc2ccccc21 (stereo unspecified)
  163, -7, 153, -0.5, 29, 1, i
- CCCc1c(C(=O)N2CCN(c3ccccc3OC)CC2)cnn1-c1ccccc1
  ., ., 101, ., ., 0.95, i
- COc1ccc(N2CCN(C(=O)CN(c3ccccc3)S(C)(=O)=O)CC2)cc1
  134, -4, 99, -1.2, 42, 0.91, i
- O=c1oc2ccccc2cc1-c1ccc(O)cc1
  101, 10, 106, -2.9, -40, 0.94, i
- O=C(O)CNc1nc(Cl)ccc1[N+](=O)[O-]
  107, -4, 98, -1.1, 14, 0.92, i
- CC(NCCO)C(=O)C12CC3CC(CC(C3)C1)C2 (stereo unspecified)
  100, -10, 116, 0.6, 18, 1.1, i
